Source: PubChem
gsp ag – activates gsp, the McCune-Albright syndrome mutation; gsp mutant cells, cAMP HTRF, 30 min; control for the full effect not named in the record; Potency, µM (doses to about 76.9 µM), without a hit: at the highest dose activation (cAMP increase), usual class: activators; 340,000 compounds, 0.13% hits; active = well fitted activation curve with a large enough effect; inconclusive = small, poorly fitted or top-dose-only effect, or another doubt; inactive = no such curve, though single readings can be large or run the other way; cell line not stated here;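 note: phosphodiesterase inhibitor Ro 20-1724 added with compounds to block cAMP breakdown; potency is the fitted concentration of half-maximal effect; nearly all actives have a fitted effect of over 60% in size; about a fifth of the inactives were tested at one dose only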
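Cells in DMEM/10% FBS with G418 were pretreated with compounds in DMSO plus […] (300 uM stock) for 30 min at 37C. cAMP was measured by HTRF (cAMP-d2 plus anti-cAMP antibody-K) after 30 min at room temperature.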
D2 agonist – activates the human D2 dopamine receptor. P14416. 360,000 compounds, 0.084% hits. DiscoveRx PathHunter D2 beta-arrestin, luminescence, 90 min; 100% = 57 uM dopamine signal. activation, % (no concentration beside the values); in the data active = activation above about 40%; inconclusive = about 15% to 40%; inactive = below about 15%; note: compound concentration not given in the record; the text of the record calls up to 30% inactive
Target sequence (P14416 whole entry, looked up): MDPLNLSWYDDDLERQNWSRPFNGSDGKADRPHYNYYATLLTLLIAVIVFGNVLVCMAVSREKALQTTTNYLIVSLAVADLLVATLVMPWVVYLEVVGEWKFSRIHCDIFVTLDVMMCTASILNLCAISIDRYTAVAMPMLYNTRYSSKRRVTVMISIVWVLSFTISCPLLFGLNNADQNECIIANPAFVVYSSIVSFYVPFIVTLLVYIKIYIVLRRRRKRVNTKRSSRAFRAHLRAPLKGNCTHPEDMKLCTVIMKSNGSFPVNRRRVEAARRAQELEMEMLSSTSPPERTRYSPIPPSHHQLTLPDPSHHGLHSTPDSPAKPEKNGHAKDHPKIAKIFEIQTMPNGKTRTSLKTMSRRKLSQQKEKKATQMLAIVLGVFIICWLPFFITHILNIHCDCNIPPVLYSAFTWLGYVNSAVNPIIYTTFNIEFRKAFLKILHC
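DiscoveRx PathHunter D2 beta-arrestin cells (2,100/well) attached overnight, then compound-stimulated 90 min at 37 C in HBSS/10 mM HEPES/0.1% Tween-20 buffer; beta-galactosidase complementation read by luminescence after 1 h at ambient temperature. Dopamine 57 uM final (EC100) as control.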
ClpP mod – qHTS Assay for Activators of ClpP; purified B. subtilis ClpP, FRET peptide cleavage, 20 min; Potency, µM (titrated, usually from 57.5 µM), inactives show at the top dose activity change, negative = active; 340,000 compounds, 1.9% hits; ATP-dependent Clp protease proteolytic subunit (Bacillus subtilis (strain 168)), P80244; active = well fitted falling curve with a large enough effect; inconclusive = small, poorly fitted or top-dose-only effect; inactive = no such curve, though single readings can be large or run the other way; note: potency is the fitted concentration of half-maximal effect; the source files actives as falling curves though it sought activators and does not explain the sign; nearly all actives have a fitted effect of over 65% in size; many hits overshoot -100%
Target sequence (P80244 whole entry, looked up): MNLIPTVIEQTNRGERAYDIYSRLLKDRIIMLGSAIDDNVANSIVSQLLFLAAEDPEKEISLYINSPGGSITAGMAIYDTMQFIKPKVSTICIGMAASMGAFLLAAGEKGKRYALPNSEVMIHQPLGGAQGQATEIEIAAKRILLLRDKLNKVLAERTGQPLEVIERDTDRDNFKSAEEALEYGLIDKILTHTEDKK
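FRET quenching reversal measured ClpP activation: 10 microg/mL B. subtilis ClpP at pH 8 with the FRET-FV decapeptide, read at 430 nm after 320 nm excitation. The 20-min minus 0-min signal was scaled between DMSO/no-enzyme wells and ADEP (5.8 microM final).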
gsp antag – gsp mutant antagonism | 340,000 compounds, 0.4% hits | gsp-mutant cells, cAMP HTRF, 30 min; control for the full effect not named in the record | Potency, µM (top dose mostly 76.9 µM), without a hit: at the highest dose activity change, negative = inhibition, hits mostly inhibitors; active = falling curve of any shape with a large fitted effect; inconclusive = falling curve, mostly with a smaller effect; inactive = flat or rising curve; cell line not stated here;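 note: intracellular cAMP measured with PDE inhibitor Ro 20-1724 present during compound exposure; potency is the fitted concentration of half-maximal effect; % is set by controls: 0 for no effect and ±100 for the full control effect; nearly all actives have a fitted effect of over 65% in size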
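Cells in G418 medium, seeded 16-24 h, 37C; buffer exchange to DPBS + 1 mM CaCl2, 0.5 mM MgCl2, 0.05% BSA; cpds in DMSO + […] (300 uM stock), 30 min 37C; HTRF cAMP detection.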
Sfp PPTase inh – Sfp phosphopantetheinyl transferase inhibition; Biochemical Sfp PPTase activity, qHTS; Potency, µM, for inactives: max response, negative = inhibition, usual class: inhibitors; 310,000 compounds, 3.5% hits; active = well fitted inhibition curve with a large enough effect; inconclusive = small, poorly fitted or top-dose-only effect, or another doubt; inactive = no such curve, though single readings can be large or run the other way;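 note: the enzyme is Sfp with the accession as filed and its product quenches rhodamine fluorescence; potency is the fitted concentration of half-maximal effect; 0% = enzyme reaction without inhibitor and -100% = no enzyme wells; top concentration of the series not given in the record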
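After 15 min at room temperature with compound, 15 nM Sfp received 5 uM rhodamine-CoA plus 12.5 uM BHQ-2-ybbR (50 mM Hepes pH 7.6, 10 mM MgCl2). Rate came from the fluorescence difference over 30 min, ex 525/em 598 nm.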
Menin MLL FP FL – inhibitors of human menin-MLL interaction, wild-type MLL peptide; AID 1766; 290,000 tested, under 10 active; Fluorescence polarization, fluorescein-MLL peptide displacement from menin; FP activity change, % at 61.4 µM; inconclusive = falling polarisation curve, or a change in total fluorescence; inactive = total fluorescence flat and polarisation flat or rising; no compound was filed as active; the % refers to the polarisation; negative = inhibition;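 note: % of control where 0% means no effect; inhibitors lower the polarisation; unlabelled MLL peptide was the positive control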
PINK1 expr mod – PINK1 expression modulation. PINK1 immunofluorescence, high-content cytometry, 24 h. Potency, µM (titrated, usually from 76.6 µM), without a hit: top-dose activation (PINK1 increase), most hits filed as activators. 410,000 compounds, 0.2% hits. AID 624263; active = well fitted activation curve with a large enough effect; inconclusive = small, poorly fitted or top-dose-only effect; inactive = flat fitted curve, though single readings scatter; cell line not stated here;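 note: potency is the fitted concentration of half-maximal effect; % of control where 0% means no effect; nearly all actives have a fitted effect of over 65% in size; a mitochondrial uncoupler was the plate control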
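Stable cell line treated 24 h with compounds at 5 concentrations (CCCP controls), then fixed and immunostained for PINK1 plus nuclear and cell stains; PINK1 immunofluorescence quantified by laser-scanning microplate cytometry.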
An asterisk follows results filed as active; ? = inconclusive; · = not tested or not shown; & = joins results of further samples; [ ] = another dose, or the depositor's remark.

SMILES	gsp ag	D2 agonist	ClpP mod	gsp antag	Sfp PPTase inh	Menin MLL FP FL	PINK1 expr mod
Clc1ccccc1-c1nn2c(-c3ccncc3)nnc2s1	-40%[inhibitor]	2.0	-0.9%	-9%	16µM*	-0.4	-3.3%[38.3 µM]
S=C1NC[C@H](Cc2ccccc2)N1CC1CCN(CCCCc2ccccc2)CC1	·	-0.5	-1.1%	3%	·	·	1.7%
O=C(NCCc1ccccc1)c1cc([N+](=O)[O-])ccc1N1CCOCC1	?	-3.0	·	-12%	·	·	2.9%
COC(C/C=C/[C@@H](O)COCc1ccccc1)OC	0%	-0.1	0.1%	8%	5%	7.3	1.4%
Cc1ccc(S(=O)(=O)Nc2ccccc2/C=N/c2nc3ccccc3n2C(C)C)cc1	-3%[15.4 µM]	-3.0	2.7%	-17%	3%	4.6	18%
Cc1ccc(NC(=O)/C=C/c2ccc(S(=O)(=O)N3CCOCC3)cc2)cc1S(=O)(=O)N(C)C	13%[15.4 µM]	14	·	35µM*	·	·	6.2%
COc1ccc(S(=O)(=O)NC(C)C(=O)NCc2cccnc2)cc1OC (stereo unspecified)	-1%[15.4 µM]	0.9	0.0%	-26%	8%	-1.0	1.8%
CN(CCc1cnn(C)c1)Cc1cn(C)nc1-c1ccc2c(c1)OCCO2	-39%[inhibitor]	0.0	·	6%	21%	-1.8	-0.4%
CCCn1nc(C(=O)OCC(=O)c2c(N)n(C)c(=O)n(C)c2=O)c2ccccc2c1=O	-20%[15.4 µM]	5.7	·	-1%	20%	-5.9	0.1%
Cc1csc(SCC(=O)NC(C)C2CC3CCC2C3)n1 (stereo unspecified)	-4%	1.8	-11%	-1%	·	·	0.2%
COc1cccc(CC(=O)Nc2nc(-c3ccc(OC)c(OC)c3)cs2)c1	18%[15.4 µM]	-3.7	·	-25%	1%	6.2	5.9%
Cc1csc(SC(C)c2nc3scc(-c4ccccc4)c3c(=O)[nH]2)n1 (stereo unspecified)	-8%	-4.2	0.8%	?	0%	1.7	0.2%
Cc1sc2ncnc(SCC(=O)c3ccc(O)cc3O)c2c1C	?	-6.1	-0.8%	-23%	-2%	5.4	2.8%
CCN1CCN(C(=O)c2ccc(CN(c3ccc(C)c(C)c3)S(C)(=O)=O)cc2)CC1	-3%[15.4 µM]	-3.1	·	-1%	1%	-4.1	-0.6%
C/C(NCCc1ccc(O)cc1)=C1/CCOC1=O	-1%	4.1	-2.6%	·	·	·	-0.5%
C[C@H]1CC[C@@]2(O[C@H](CCO)C[C@@H](O)[C@@H]2O)O1	·	0.7	-14%	5%	11%	1.7	1.6%
CCCNCC(O)Cn1c2ccccc2n2c(=O)cc(C)c(C#N)c12 (stereo unspecified)	-53%[inhibitor]	1.0	?	-3%	2%	7.8	19%
Clc1ccc(SCCN2CCNCC2)cc1	-41%	-3.3	1.7%	6%	?	-5.9	-0.9%
COc1ccc(-c2csc(NC(=O)COC(=O)c3ccco3)n2)cc1	-21%	0.4	0.9%	8%	13%	3.5	5.6%
COc1ccc(-c2ccc(SCC(=O)Nc3cc(C)on3)nn2)cc1OC	2%	-1.5	1.4%	5%	-3%	-0.9	5.0%[38.3 µM]
CCOc1ccc2nc(NC(=O)CS(=O)(=O)c3ccc(C)cc3)sc2c1	-2%	6.8	-5.9%	-27%	-3%	-4.1	-1.9%
CCCOc1ccc(C(=O)CCC(=O)OCC(=O)N2CCN(S(=O)(=O)c3ccc(C)cc3C)CC2)cc1	0%	-1.7	2.7%	-4%	·	·	1.7%
O=C(NNC(=O)c1ccccc1Cl)c1ccco1	-32%	3.5	·	10%	6%	-1.3	2.1%
C/C(CC(=O)Nc1cc(C)cc(C)c1)=N\NC(=O)c1ccccn1	-3%	0.0	0.7%	7%	-11%	0.0	0.0%
CC(=O)N1CCCc2cc(S(=O)(=O)N3CCCC(C(=O)N4CCN(c5cccc(Cl)c5)CC4)C3)ccc21 (stereo unspecified)	-21%	12	-0.3%&1.3%	28µM*	-7%	-3.0	0.4%&2.1%

Later entries.
SMILES	gsp ag	D2 agonist	ClpP mod	gsp antag	Sfp PPTase inh	Menin MLL FP FL	PINK1 expr mod
CSCCC(NC(=O)c1ccccc1Cl)C(=O)N1CCCC(C)C1 (stereo unspecified)	9%[15.4 µM]	-2.1	·	9%	·	·	1.4%
Cc1ccc(S(=O)(=O)N(C)CCCC(=O)Nc2cccc3ccccc23)cc1	-9%[15.4 µM]	0.0	·	?	15%	0.1	2.1%
O=C(NCCCN1CCOCC1)c1ccc(Cl)cc1Cl	-12%	1.5	0.7%	10%	13%	-1.0	0.9%
CC(=O)Nc1sc(NC(=O)c2ccc(C)cc2)nc1-c1cccs1	-2%	-1.5	-20%	5%	-10%	3.3	6.8%
Cc1ccsc1C(=O)OCC(=O)NC1CCCCC1	-18%	0.7	0.8%	·	·	·	1.4%
CCN(c1ccc(NC(=O)COC(=O)c2ccc([N+](=O)[O-])o2)cc1)C(C)C	3%	14	2.3%	-4%	·	·	9.7%
Cc1csc(NC(=O)CSc2nc3ccccc3c(=O)[nH]2)n1	6%	2.8	0.9%	21%	3%	1.8	-0.6%
COc1cc(N)c(Cl)cc1NC(=O)c1ccccc1	-6%	-0.8	-4.7%	-6%	3%	-0.1	0.9%
OCCC1CN(C2CCC2)CCN1Cc1ccc(F)c(F)c1 (stereo unspecified)	9%[15.4 µM]	-3.6	-2.5%	7%	7%	-2.0	2.5%
CCCCN1C(=O)C(CC(=O)NC(c2ccccc2)c2ccccc2)CC(C(=O)N(CC)CC)=C1C (stereo unspecified)	?	-3.4	0.8%	·	·	·	0.7%
COC(=O)c1cn(NC(=O)c2cc(OC)cc(OC)c2)c(=O)c2ccccc12	9%	-2.7	0.1%	3%	-2%	0.1	-2.2%
COc1cc2c(cc1OC)C(C)N(C(=O)Cn1ncc3c1-c1ccccc1OC3)CC2 (stereo unspecified)	-8%	4.7	-1.9%	-10%	4%	-0.3	2.0%
CCCCC[n+]1ccn(C2=C([O-])c3ccccc3C(=O)/C2=N\S(=O)(=O)c2ccc(Br)cc2)c1	-13%	?	5.0%	0%	8%	3.1	1.8%
O=C(CN1C(=O)CSC1=O)Nc1ccc2c(c1)OCCO2	6%	0.9	3.1%	8%	4%	2.7	3.7%
COc1ccc(-c2noc(-c3csc([C@@H]4O[C@H](CO)[C@H](O)[C@H](O)[C@H]4O)n3)n2)cc1OC	·	-5.3	-1.3%	·	·	·	-0.1%
CN(C)S(=O)(=O)c1cccc(NC(=O)CCc2c[nH]c3ccccc23)c1	-12%[15.4 µM]	2.9	0.0%	-12%	5%	-1.0	-1.2%
CS(=O)(=O)N1CCN(c2ccc(C(=O)NC3C4CC5CC(C4)CC3C5)cc2[N+](=O)[O-])CC1 (stereo unspecified)	-15%	1.5	-2.3%	?	8%	1.9	10%[38.3 µM]
Cc1onc(-c2c(F)cccc2Cl)c1C(=O)NC(=S)NCc1cccnc1	2%	-9.7	1.2%	-2%	24%	3.0	0.1%
COc1ccc([C@H]2C[C@@H](O)[C@H](n3cc(C4CC4)nn3)CN2Cc2cccs2)cc1	-32%	0.0	-4.6%	·	·	·	2.9%
COc1ccc(NC(=O)N2CC(C)OC(C)C2)cc1OC (stereo unspecified)	-6%	-3.6	0.3%	7%	-12%	7.9	3.0%[38.3 µM]
c1ccc(CN2C3=NCCN3c3ccccc32)cc1	11%	-2.5	-0.7%	14%	?	-4.3	0.4%
Cc1ccc(NC(=O)CCc2ccc(C)o2)c(C)c1	5%	-2.2	0.9%	11%	3%	·	6.0%
Cc1cccc(OCC(O)Cn2c(N3CCCCC3)nc3c2c(=O)[nH]c(=O)n3C)c1 (stereo unspecified)	-14%	0.0	·	5%	-4%	0.2	0.3%
CC1=NNC(=O)C1C(c1ccc(F)cc1)C(C#N)C#N (stereo unspecified)	22%	-4.4	-2.2%	7%	·	·	-0.5%
Cc1ccc2cc(CN(C(=O)c3ccncc3)C(C)C)c(=O)[nH]c2c1	-62%[inhibitor]	-1.2	?	-2%	-6%	-2.7	1.0%

Carrying on.
SMILES	gsp ag	D2 agonist	ClpP mod	gsp antag	Sfp PPTase inh	Menin MLL FP FL	PINK1 expr mod
O=C(COC(=O)/C=C/c1cccc(Br)c1)NCc1ccco1	?	-2.0	1.6%	5%	·	·	1.6%
CCOc1ccc(-c2nc(N)ncc2Oc2ccc(OC)cc2)c(O)c1	9%[15.4 µM]	-2.5	·	-8%	5%	-2.9	-0.8%
O=C(N/N=C/c1sc(N2CCOCC2)nc1-c1ccccc1)c1ccccc1O	9%	-2.0	-4.9%	40µM*	0%	5.0	?
COCCNC(=S)N(C)[C@H]1C[C@H]2c3cc(-c4ccccc4)ccc3CCN2C(=O)[C@H]1[C@H](C)O	-50%[inhibitor]	-10	-2.2%	·	·	·	-0.1%
Cc1cc(NS(=O)(=O)c2ccc(NC(=O)c3ccc(Cl)nc3)cc2)nc(C)n1	20%	-3.3	-3.5%	·	·	·	-0.6%
CCOc1ccc(NC(=O)N(C2CCCC2)C2CCN(C(C)=O)CC2)cc1	-12%[15.4 µM]	-4.4	-5.3%	6%	19%	-1.3	-1.8%
COCCCN1C(=O)C(CC(=O)NCc2ccco2)CC(C(=O)N(C(C)C)C(C)C)=C1C (stereo unspecified)	·	-5.9	2.7%	·	·	·	0.1%
COc1ccc(Cc2nnc(NC(=O)Cn3cnc4c3c(=O)n(C)c(=O)n4C)s2)cc1	-5%	-4.8	0.3%	6%	4%	1.2	0.2%
CCN1CCN(c2ccc(S(=O)(=O)N3CCCCC3)cc2NC(=O)/C=C/c2ccc(F)cc2)CC1	11%	-2.2	0.6%	4%	·	·	2.4%
COCc1c(CCl)cnc(C)c1O	20%	-2.3	-26%	6%	10%	-0.9	-0.4%
O=c1c2cn[nH]c2nc(SCc2c(F)cccc2F)n1-c1ccc(Cl)cc1	-1%	-0.8	8.5%	-9%	-7%	-2.2	-0.5%&1.1%
O=c1c2c(nc3cc(-c4ccc(F)cc4)[nH]n13)CCCC2	14%	-2.1	10µM*	-2%	12%	2.3	2.3%
Cc1cc(F)ccc1-c1cc(C(=O)NCc2ccco2)[nH]n1	·	-3.7	0.1%	·	·	·	0.1%
